Pyk2 oligo antag: Pyk2 (human) oligomerization antagonism. Q14289. Q293 cells, Pyk2 FERM NanoBiT luminescence; active compounds read low. z-score (the deposit names both 25 µM and 10 µM). 99,000 compounds, 0.83% hits. AID 1347419;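 active means Z-score of -3 or lower, scaled per plate to the spread of control and sample wells; inactive means z-score above -3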;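 further: negative z-score means lost luminescence so less FERM oligomerization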
PLK1 PBD inh: blocks phosphopeptide binding to human Plk1 polo box domain | inhibition, %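 (tested at about 20 µM)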 | Plk1 PBD phosphopeptide binding, fluorescence polarization | AID 693 | 97,000 compounds, 0.13% hits; in the data active means inhibition above about 34%, passing the limit was not always enough
EphB4 ephrin blk: antagonists of human EphB4-ephrin-B2 interaction; P54760; EphB4 LBD / TNYL-RAW-Alexa532 peptide, fluorescence polarization; inhibition, % at 7 µM; 97,000 compounds, 0.15% hits; AID 720;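 active means inhibition above the screen-wide mean inhibition plus 3 SD, cut at about 15% in these data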;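 further: 0% = DMSO wells and 100% = excess unlabeled TNYL-RAW peptide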
Target sequence (P54760 whole entry, looked up, the tested form may be a part): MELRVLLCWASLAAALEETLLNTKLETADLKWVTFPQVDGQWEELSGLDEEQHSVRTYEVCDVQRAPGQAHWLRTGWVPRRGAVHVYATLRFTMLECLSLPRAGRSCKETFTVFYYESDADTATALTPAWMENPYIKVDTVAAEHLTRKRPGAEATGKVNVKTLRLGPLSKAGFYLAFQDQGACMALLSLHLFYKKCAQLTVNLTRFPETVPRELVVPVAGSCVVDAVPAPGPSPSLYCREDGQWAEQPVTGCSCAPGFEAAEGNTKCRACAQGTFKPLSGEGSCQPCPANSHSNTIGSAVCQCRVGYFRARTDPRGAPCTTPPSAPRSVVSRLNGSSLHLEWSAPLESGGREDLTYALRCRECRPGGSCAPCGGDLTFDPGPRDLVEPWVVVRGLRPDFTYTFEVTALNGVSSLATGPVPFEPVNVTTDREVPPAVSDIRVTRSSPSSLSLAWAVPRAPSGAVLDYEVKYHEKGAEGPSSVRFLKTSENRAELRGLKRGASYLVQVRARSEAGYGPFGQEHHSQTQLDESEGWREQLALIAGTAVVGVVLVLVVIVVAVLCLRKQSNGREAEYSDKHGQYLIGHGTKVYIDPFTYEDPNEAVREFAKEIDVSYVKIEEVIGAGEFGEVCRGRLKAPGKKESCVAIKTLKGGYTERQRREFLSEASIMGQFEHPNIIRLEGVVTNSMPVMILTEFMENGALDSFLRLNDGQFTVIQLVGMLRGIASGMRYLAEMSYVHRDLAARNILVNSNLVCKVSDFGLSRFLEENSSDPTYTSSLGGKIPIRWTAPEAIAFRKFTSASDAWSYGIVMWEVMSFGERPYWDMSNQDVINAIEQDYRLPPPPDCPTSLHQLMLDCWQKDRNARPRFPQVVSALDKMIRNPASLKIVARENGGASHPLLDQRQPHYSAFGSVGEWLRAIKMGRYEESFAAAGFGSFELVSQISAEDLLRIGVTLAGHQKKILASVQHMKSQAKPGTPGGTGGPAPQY
cytoskel mod: cytoskeleton assembly modification | HUVEC TNFa F-actin phalloidin imaging, high content | inhibition, % at 2 µM | 91,000 compounds, 0.18% hits | AID 836;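 active means inhibition above the batch mean plus 3 SD and confirmed as a hit by visual image inspection, cut at about 30% in these data, passing the limit was not always enough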; further: strong numbers were not always called active
LYP act: increases human PTPN22 phosphatase activity; AID 697; activation, % at 2 µM; 96,000 compounds, 0.11% hits; recombinant LYP, DiFMUP fluorescence; 0 = plate median, 100 = signal doubled; Q9Y2R2;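 active means activation at 2 µM above a set limit, the mean plus 5 SD, cut at about 37% in these data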
LYP inh 2: inhibitors of human LYP (PTPN22) phosphatase | inhibition, % at 2 µM | 96,000 compounds, 0.21% hits | recombinant LYP catalytic domain, DiFMUP fluorescence | Q9Y2R2 | AID 640;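 active means inhibition at 2 µM at or above a set limit, the screen mean plus 3 SD, cut at about 24% in these data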;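 further: 0% = DMSO with enzyme and 100% = enzyme fully blocked by orthovanadate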
PLK1 inh: PLK1 (human) kinase inhibition | P53350 | recombinant PLK1 kinase, TR-FRET peptide phosphorylation | inhibition, % at 10 µM | 97,000 compounds, 0.53% hits;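 active means inhibition of 50% or more in the single-concentration screen; inactive means inhibition below 50%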;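 further: 0% = DMSO max control and 100% = H-89 dihydrochloride min control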
Rev-RRE block: disrupts HIV-1 Rev binding to RRE RNA. 97,000 compounds, 0.79% hits. inhibition, % at 8 µM. AID 704. P05866. Rev peptide-RRE RNA binding, FRET;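 active means inhibition above the screen-wide mean plus 3 SD, cut at about 35% in these data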;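 further: 0% = median DMSO wells and 100% = median Neomycin B control wells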
Target sequence (P05866 whole entry, looked up): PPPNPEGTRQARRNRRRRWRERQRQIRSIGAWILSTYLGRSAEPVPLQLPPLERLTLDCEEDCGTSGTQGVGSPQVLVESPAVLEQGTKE
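Test system – labelled RRE RNA duplex and labelled Rev peptide · Reagent – labelled Rev peptide · Doses – one concentration, 8 µM nominal · Incubation – 5 + 15 min at 25 °C · Signal – FRET fluorescence readout · Read-out basis – % inhibition of FRET ratio versus controls · Control set – DMSO wells as 0% and neomycin B wells as 100% inhibition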
* hit, by the source's call; . = no result given; [ ] = dose if it differs, or a comment.

compound	LYP act	EphB4 ephrin blk	Pyk2 oligo antag	Rev-RRE block	cytoskel mod	LYP inh 2	PLK1 PBD inh	PLK1 inh
COc1ccc(C2C=C(c3ccc(Br)cc3)Nc3nc(N4C(=O)CCC4=O)nn32)cc1 (stereo unspecified)	-3	-1	-2.7	113*[fluorescence artefact?]	-10	1	-10	-9
CCOC(=O)c1cc(C#N)c(Oc2cccc(C(F)(F)F)c2)nc1-c1ccccc1	13	0	-1.3	6	-1	-9	-2	-13
O=C(NC(NC(=S)Nc1ccccc1C(=O)O)C(Cl)(Cl)Cl)c1cccc([N+](=O)[O-])c1 (stereo unspecified)	-3	2	-0.34	-4	20	7	10	-8
CC(=O)NC1=NN(C(C)=O)C(c2sccc2C)S1 (stereo unspecified)	-12	2	-0.2	12	-13	12	4	-9
Cc1ccc(-c2cc(C(=O)Nc3ccc4c(c3)OCCO4)c3ccccc3n2)cc1	2	2	-1.8	5	-14	3	-13	0
CCOC(=O)c1c(NC(=O)CSc2nnc(C)s2)sc2c1CCC(C)C2 (stereo unspecified)	-2	3	-1.5	2	-17	-3	-3	-7
Brc1ccc(-c2nnc(-c3ccco3)o2)cc1	-4	-3	-0.91	3	-3	1	9	-5
COc1ccc(N(CC(=O)NCC2CCCO2)S(=O)(=O)c2ccc(C)cc2)cc1OC (stereo unspecified)	-4	6	-0.02	5	-6	5	22	-9
C=CCn1c(Cc2csc(N)n2)nnc1SCC(=O)Nc1ccccc1C(F)(F)F	-10	-5	0.55	1	14	12	-6	-13
CC(c1ccccc1)C1CC(=O)N(C2CCCCC2)C1=O (stereo unspecified)	4	17*	0.63	11	6	-5	-31	-8
CC(=O)NS(=O)(=O)c1cccnc1Nc1ccc(Cl)c(Cl)c1	8	-5	-0.67	15	-12	-9	-3	-8
COc1ccc(S(=O)(=O)N(CCCN2CCOCC2)Cc2cccc(OC)c2OC)cc1	8	-5	0.43	11	11	-9	-8	-8
COc1ccc(OC)c(NC(=O)c2cc(-c3ccc(C)cc3O)n[nH]2)c1	-7	2	1.3	5	36	6	8	-7
COc1ccccc1C(=O)Nc1ccccc1SC	-14	-4	-1.5	6	-4	10	10	-2
CC(C)C(C)(C#N)NC(=O)CSc1nnc(C(F)(F)F)n1C (stereo unspecified)	-10	0	-0.34	10	13	14	-20	-10
CC(Sc1n[nH]c(N)n1)C(=O)C12CC3CC(CC(C3)C1)C2 (stereo unspecified)	3	2	1.1	-1	9	-6	0	-9
Cc1nc(-c2cccc(NS(C)(=O)=O)c2)cs1	-3	-2	0.69	6	-9	1	9	0
COc1ccccc1CNc1nc2nc3c(c(=O)n2[nH]1)CCC3	7	-4	0.12	6	-73	-7	22	-8
C=CCNc1nc(-c2ccccc2)c(C(=O)OCC)cc1C#N	-1	5	-1	12	-11	3	4	-13
CC1CCc2cc(F)ccc2N1C(=O)CSc1nnc(-c2cccs2)n1C (stereo unspecified)	-2	6	0.24	8	-6	1	-1	-13
CCOC(=O)c1cc(C#N)c(Oc2ccccc2)nc1-c1ccccc1	1	-5	-0.9	13	-1	2	-21	-11
CCN(c1ccc(NC(=O)COC(=O)CCC(=O)c2ccc(F)cc2)cc1)C(C)C	6	1	-0.03	0	6	-4	-25	-2
Cn1c(=O)c2c(nc(Cl)n2Cc2ccc(Cl)c(Cl)c2)n(C)c1=O	-4	6	0.06	4	-4	6	-25	-5
COc1cccc(OCC(=O)NNC(=O)c2cccs2)c1	3	-1	-0.38	5	-21	3	16	-8
CN(C)CCCNc1cn[nH]c(=O)c1Cl	13	4	0.24	7	10	-12	-2	-5

Gathered by group, the entries above with an aryl thioether with sulfur outside any ring
compound	LYP act	EphB4 ephrin blk	Pyk2 oligo antag	Rev-RRE block	cytoskel mod	LYP inh 2	PLK1 PBD inh	PLK1 inh
CCOC(=O)c1c(NC(=O)CSc2nnc(C)s2)sc2c1CCC(C)C2 (stereo unspecified)	-2	3	-1.5	2	-17	-3	-3	-7
C=CCn1c(Cc2csc(N)n2)nnc1SCC(=O)Nc1ccccc1C(F)(F)F	-10	-5	0.55	1	14	12	-6	-13
COc1ccccc1C(=O)Nc1ccccc1SC	-14	-4	-1.5	6	-4	10	10	-2
CC(C)C(C)(C#N)NC(=O)CSc1nnc(C(F)(F)F)n1C (stereo unspecified)	-10	0	-0.34	10	13	14	-20	-10
CC(Sc1n[nH]c(N)n1)C(=O)C12CC3CC(CC(C3)C1)C2 (stereo unspecified)	3	2	1.1	-1	9	-6	0	-9
CC1CCc2cc(F)ccc2N1C(=O)CSc1nnc(-c2cccs2)n1C (stereo unspecified)	-2	6	0.24	8	-6	1	-1	-13

The list continues.
compound	LYP act	EphB4 ephrin blk	Pyk2 oligo antag	Rev-RRE block	cytoskel mod	LYP inh 2	PLK1 PBD inh	PLK1 inh
O=S(=O)(Nc1ccc(-c2nc3cccnc3s2)cc1)c1cccs1	-6	-7	.	2	5	2	-4	3
Clc1cccc(-c2nc(NCc3cccnc3)c3ccccc3n2)c1	13	0	-3.7*	7	4	-10	-1	-6
O=C(Cn1cnc2scc(-c3ccc(F)cc3)c2c1=O)N1CCOCC1	-1	1	-0.09	5	1	3	2	-8
Cc1cc(C)c2c(CC(=O)O)coc2c1	-9	-3	1.1	5	-22	7	-2	-6
Clc1ccc(-c2nnc(-c3ccco3)o2)cc1	1	-1	-0.11	2	-1	-2	-20	-16
COc1cc2c(cc1OC)CN(C(=O)COc1ccc(C)c(C)c1)CC2	11	10	0.86	11	-24	-5	-27	-14
Cc1ccc(-n2nc(C(=O)NCc3ccc(C)o3)c3c4ccccc4n(C)c3c2=O)cc1	-3	-6	-2	-5	-10	3	-19	-10
COc1ccc(-c2cc(CNC(=O)CN3CCN(C)CC3)on2)cc1	1	13	-0.13	4	3	-4	10	-7
Nc1ccc(O)c(-c2nc3ccccc3s2)c1	-8	4	-1.5	26	-11	6	3	3
O=S(=O)(Nc1cccc(-c2cn3cccnc3n2)c1)c1ccc(-c2ccccc2)cc1	-16	1	-0.93	1	18	18	31	-17
COc1ccccc1CC(=O)Nc1ccc(-c2noc(COc3ccc(Cl)c(C)c3)n2)cc1	-2	1	0.51	12	-3	2	-5	-11
CN1C(=O)CSC1=NCC12CC3CC(CC(C3)C1)C2	3	6	0.86	14	-18	-2	10	-3
Cc1ccccc1NS(=O)(=O)c1ccc2[nH]cc(C(=O)NCCCN3CCOCC3)c(=O)c2c1	-5	-3	0.52	4	-18	4	-13	-4
C=CCn1c(=O)c2ccccc2n2c(Sc3nnnn3-c3ccccc3)nnc12	2	-9	-0.41	-1	-97	-5	-8	-2
O=C(COC(=O)c1cncc(Br)c1)NCc1ccco1	-2	-2	0.51	-4	9	2	-25	-5
Cc1ccc(-c2cc(C(=O)NCc3cnn(C)c3C)c3cc(Br)ccc3n2)cc1	-10	4	-0.4	-4	-23	13	16	-31
Cc1c(C(=O)Nc2ccc(Cl)cc2)c2ccccn2c1C(=O)c1ccccc1	0	-8	-0.38	-1	1	2	-19	6
Cc1sc2ncn(CC(=O)NCCCC(=O)N3CCN(c4ccccc4)CC3)c(=O)c2c1C	4	-9	1.3	0	8	-2	-3	-2
C(=C1/CCCC2=C1Nc1ncnn1C2c1ccccc1)/c1ccccc1 (stereo unspecified)	-20	6	.	9	1	20	1	-11
Cc1ccc(-c2nc3ccsc3c(=O)o2)cc1	-2	-2	-0.44	4	-5	0	1	-11
COc1ccc(-c2cc(C(F)(F)F)nc(S(C)(=O)=O)n2)cc1OC	2	-7	-1.9	0	25	-6	-9	0
CC1CCN(c2ncnc3nc[nH]c23)CC1	42*	-7	.	3	9	-43	12	81*
O=C(NNC(=O)c1ccccc1-n1cccc1)c1ccc(Cl)c(Cl)c1	-3	-1	-0.19	3	13	6	-66	-10
COC(=O)c1cc(=O)nc2sc3cc(OC)ccc3n12	-2	-8	0.86	7	3	2	-10	-13
Nc1cc(=O)nc(SCC(=O)NC2CCCCC2)n1-c1ccccc1	6	-7	0.09	7	-39	-9	17	0
Cc1ccc(Cl)c(OCC(=O)NCc2ccco2)c1	-18	6	0.65	-6	-17	16	-4	0
CCOc1cc2nc(-c3ccc(OC)c(OC)c3)nc(NCCCN3CCOCC3)c2cc1OC	0	-7	0.98	22	-2	2	-22	-9
O=C(NCCc1c[nH]c2ccccc12)c1cc(S(=O)(=O)N2CCCCC2)ccc1N1CCOCC1	14	-2	-0.77	-2	-20	-14	1	-10
O=C(Nc1nc(SCc2ccc(F)cc2)ns1)c1ccco1	2	7	0.44	5	-9	-10	-11	-8
Clc1ccc2oc(-c3cccnc3)nc2c1	5	-6	-0.45	1	24	-3	-33	-11
Fc1ccc(Cn2nnnc2CN2CCN(C3CCCCC3)CC2)cc1	8	-2	0.19	-1	-32	-10	-2	-4
COc1ccccc1NC(=O)CSc1ccc2nnc(-c3ccncc3)n2n1	-1	-7	.	-1	-14	0	-5	-23
Cc1ccc(-c2cc(C(=O)Nc3cc(C)ccc3C)[nH]n2)c(O)c1	-9	-3	2.1	9	-2	8	2	-8
FC(F)Sc1nnc(-c2cccs2)n1-c1ccccc1	2	1	0.58	4	-3	-2	-23	-17
CC1=C(C(=O)Nc2cc(C)ccn2)C(c2ccc(C)cc2)C2=C(CCCC2=O)N1 (stereo unspecified)	3	4	-0.64	3	-14	-7	4	-11
N#Cc1c(NC(=O)CN2CCCCC2)sc2c1CCC2	4	2	-0.12	8	20	-5	1	6
NS(=O)(=O)c1ccc(NC(=O)CSc2nnc(COc3ccccc3Cl)n2C2CC2)cc1	-11	3	0.94	-10	14	10	-10	-1
CCn1c2ccccc2c2cc(NC(=O)CSc3nnc(-c4cccc(C)c4)o3)ccc21	-8	-2	-0.09	-4	-29	4	37	-15
Cc1nc2ccc(NC(=O)N3CCSCC3)cc2s1	0	-1	0.41	4	-3	0	-5	-11
CCOC(=O)c1cnn(-c2cc(Oc3ccccc3)ncn2)c1N	-2	-5	-0.25	8	18	4	41	-5
Cc1cc(=O)n(CC=C(Cl)Cl)c2ccccc12	2	1	-1.2	0	-3	-3	-2	-2
Cc1ccc(/C=N/n2c(COc3ccccc3)n[nH]c2=S)s1	1	4	0.66	0	9	4	13	-5
CCOc1cc(/C=C2/NC(=O)N(CC(=O)Nc3cccc(C)c3)C2=O)ccc1OC	3	-6	-0.77	-4	2	-6	24	7
CCOC(=O)N1CCN(Cc2cc(=O)oc3ccc4ccccc4c23)CC1	6	4	-1.2	11	30	-2	-14	-6
COc1ccc(S(=O)(=O)N2CCN(C(=O)[C@@H]3CCC(=O)N3C3OC(=O)c4ccccc43)CC2)cc1 (stereo partly specified)	4	-4	-0.06	3	0	-6	16	-8
CCOc1cc(/C=C2/NC(=O)N(CC(=O)Nc3cccc(C)c3)C2=O)ccc1O	-4	3	0.11	8	7	4	-17	-6
CCCCNc1nc(-c2ccccc2)c(C(=O)OCC)cc1C#N	-13	2	-0.7	11	9	17	8	-16
CCNC(=O)N1C(=O)C2(OCCO2)c2ccccc21	-12	-1	0.21	3	40	9	-3	11
COc1cc2c(cc1OC)CN(C(=O)CCCN1C(=O)c3ccccc3C1=O)CC2	-8	-2	-0.63	-1	27	7	3	-18
CCS(=O)(=O)Nc1ccc(-c2ccc(NS(=O)(=O)CC)c(OC)c2)cc1OC	-5	0	1.7	1	-13	3	32	1
CC1(C)CC(=O)C(C=Nc2ccncc2)=C(O)C1	-1	9	1.3	8	0	7	-7	-10

The list is partial; count on the stated rates, not on these rows.
